Assay outcomes: PubChem BioAssay, several laboratories
T cruzi repl = T. cruzi replication inhibition. T. cruzi beta-gal in NIH3T3, luminescence, 90 h. 300,000 compounds, 1.4% hits. inhibition, % (test concentration not listed). AID 1885;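 active means mean inhibition across valid replicates above about 55%, limit read from the data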;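 further: signal also drops with host cell toxicity which is not excluded here; 0% = plate median of DMSO wells and 100% = zero luminescence signal; higher percent means less beta-gal luminescence so fewer parasites; stock transfer was 50 nL into about 50 µL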
B2AR ag = agonists of human beta-2 adrenergic receptor inducing internalization. P07550. Am2.2-beta2AR cells, FAP receptor internalization, flow cytometry; reference of the scale not given here. response, % (test concentration not listed). 340,000 compounds, 0.43% hits. AID 504454;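 active means response above a set limit, near 3 SD of response in nonfluorescent compounds, cut at about 42% in these data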;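 further: stock transfer was 100 nL into about 11 µL; a reference agonist was the positive control; negative values mostly stem from fluorescent compounds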
A1 inh = inhibitors of the anti-apoptotic protein A1, read as caspase activation. 330,000 compounds, 0.066% hits. caspase activation, % (test concentration not listed). MEF A1-2A-BIM cells, Caspase-Glo 3/7 luminescence, 3 h; percent of clofoctol response, vehicle zero. AID 2462;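 active means over half of replicate activation scores above 10%, or exactly half above 10 with the replicate mean above 10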;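 further: wells of about 30 µL received 50 nL stock; many hits fall short of the cut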
Calb FLC = C. albicans growth modulation with fluconazole; growth inhibition, % (concentration not given with the values); C. albicans CaCi-2 (fluconazole-resistant clinical isolate) + fluconazole, Alamar Blue growth, 48 h; 300,000 compounds, 0.57% hits; AID 1979;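 active means most replicates above 75%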;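 further: all wells also contain fluconazole at 8 µg/ml as a sub-toxic cotreatment; 0% = median of DMSO wells and 100% = median of geldanamycin control wells; wells of about 8 µL received 7.5 nL stock; the first replicate is given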
Ecoli rRNA inh = inhibitors of bacterial rRNA selective over humanized ribosomes | 350,000 compounds, 1.6% hits | GFP signal change (wild-type ribosome), % (no concentration beside the values) | AID 720706 | E. coli WT GFP vs humanized-ribosome RFP mutants, fluorescence, 24 h; stronger effect = lower value; DMSO median 0, no signal -100;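 active means significant combined selectivity score with lowered wild-type GFP, culture density cut under 30%, mutant RFP and density less affected; inactive means any of these conditions unmet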; further: one replicate is shown; some compounds called inactive have numbers as strong as hits
LANA-H2A inh = blocks KSHV LANA binding to histone H2A/H2B; Q9QR71; cell-free LANA-H2A/H2B peptide, fluorescence polarization; 320,000 compounds, 0.6% hits; AID 2629; inhibition, % (test concentration not listed); in the data active means inhibition mostly above about 10%, no sharp cut-off; inactive means mostly below about 6.7%;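 further: stock transfer was 7.5 nL into about 10 µL; 0% = median of vehicle wells and 100% = median of positive control wells; one replicate is shown; the record names a cut of 25% in any replicate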
Target sequence (Q9QR71 whole entry, looked up): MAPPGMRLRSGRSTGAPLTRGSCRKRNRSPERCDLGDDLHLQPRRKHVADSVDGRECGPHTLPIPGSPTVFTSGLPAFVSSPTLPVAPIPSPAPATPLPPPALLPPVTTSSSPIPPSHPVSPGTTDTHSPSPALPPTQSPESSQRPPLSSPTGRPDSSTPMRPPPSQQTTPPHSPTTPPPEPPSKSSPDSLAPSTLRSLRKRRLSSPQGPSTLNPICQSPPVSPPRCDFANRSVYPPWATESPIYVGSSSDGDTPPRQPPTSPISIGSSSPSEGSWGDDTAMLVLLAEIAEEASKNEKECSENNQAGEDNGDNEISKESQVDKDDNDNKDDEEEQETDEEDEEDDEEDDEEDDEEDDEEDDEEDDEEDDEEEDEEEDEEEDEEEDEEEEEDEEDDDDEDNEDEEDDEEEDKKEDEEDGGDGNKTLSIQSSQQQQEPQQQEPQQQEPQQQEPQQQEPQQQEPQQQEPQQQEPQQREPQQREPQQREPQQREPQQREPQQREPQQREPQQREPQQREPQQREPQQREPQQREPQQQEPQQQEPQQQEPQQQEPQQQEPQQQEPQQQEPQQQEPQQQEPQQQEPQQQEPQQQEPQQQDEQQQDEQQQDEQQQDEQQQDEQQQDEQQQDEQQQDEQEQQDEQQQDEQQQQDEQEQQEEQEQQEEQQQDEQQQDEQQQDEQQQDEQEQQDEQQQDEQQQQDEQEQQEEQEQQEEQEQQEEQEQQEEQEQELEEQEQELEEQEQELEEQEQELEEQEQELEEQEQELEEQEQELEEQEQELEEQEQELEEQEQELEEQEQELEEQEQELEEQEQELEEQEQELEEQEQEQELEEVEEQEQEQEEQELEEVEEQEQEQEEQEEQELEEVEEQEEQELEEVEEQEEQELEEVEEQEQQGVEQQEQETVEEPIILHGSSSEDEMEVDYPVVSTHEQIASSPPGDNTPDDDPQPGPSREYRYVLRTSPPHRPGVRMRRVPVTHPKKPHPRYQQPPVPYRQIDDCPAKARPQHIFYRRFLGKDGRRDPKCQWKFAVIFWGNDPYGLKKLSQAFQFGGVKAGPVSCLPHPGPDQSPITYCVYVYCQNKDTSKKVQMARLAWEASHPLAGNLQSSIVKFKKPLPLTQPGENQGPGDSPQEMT
Beta apoptosis = beta cell apoptosis inhibition. INS-1E cytokine-induced death, ATP luminescence, 48 h; percent of positive-control rescue, neutral wells zero. protection from apoptosis, % (test concentration not listed). 300,000 compounds, 0.8% hits;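 active means all replicates at 75% or more, or half of them and the mean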;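 further: 0% = cytokine-treated negative control wells and 100% = positive control rescue; higher means more ATP so stronger rescue from cytokine killing; wells of about 40 µL received 100 nL stock; the first replicate is given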
ALR inh = human ALR oxidase inhibition via reduced H2O2 | 290,000 compounds, 3.8% hits | inhibition, % (no concentration beside the values) | P55789 | purified ALR, DTT oxidation, H2O2 HRP-luminol luminescence;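 active means mean and each replicate at 75% or more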;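 further: stock transfer was 7.5 nL into about 7.5 µL; 0% = neutral wells and 100% = wells with inactivated enzyme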
Ecoli rRNA inh OD600 = also measured in Ecoli rRNA inh; calls as there; OD600 change, %; measured here: OD600 growth;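 optical density of the mix in the first replicate; 0 = DMSO median and -100 = no signal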
Ecoli rRNA inh RFP = second read-out of Ecoli rRNA inh, no call of its own (marks repeat the call); RFP signal change, %; measured here: RFP humanized mutant strains;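 first replicate; 0 = DMSO median and -100 = no signal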
Numbers without * were called inactive; i = inactive; / = not tested or not shown; & = joins results of further samples.

SMILES | T cruzi repl | B2AR ag | A1 inh | Calb FLC | Ecoli rRNA inh | Ecoli rRNA inh OD600 | Ecoli rRNA inh RFP | LANA-H2A inh | Beta apoptosis | ALR inh
O=C(NNc1ccc(Cl)cc1)c1cccs1 | / | -2 | -0.1 | 82* | 5 | 11 | -2.1 | -3.0 | -8 | 7
C/C(CC(=O)NCc1ccco1)=N\NC(=O)CC#N | 7 | 6 | -0.6 | -28 | 14 | 12 | 3.9 | -4.2 | -9 | 10
Cc1cc(Br)ccc1NC(=O)c1ccc(-n2cncn2)c([N+](=O)[O-])c1 | -7 | -2 | 0.3 | -2 | 5 | 7 | 0.5 | -1.2 | / | /
CCN(CC(=O)NCCCN1CCOCC1)S(=O)(=O)c1cc(Cl)ccc1Cl | 1 | -2 | -0.3 | -1 | 7 | 12 | 1.3 | 3.1 | 0 | /
Cc1ccc(S(=O)(=O)NC2CCC(C(=O)O)CC2)cc1 (configuration not stated) | -12 | 12 | 0.6 | 16 | / | / | / | -1.6 | / | -30
Cc1nc(-c2ccccc2)nc(-c2ccccc2)n1 | -15 | 4 | 1.3 | -5 | 11 | 5 | 9.1 | 0.7 | 1 | 0
O=C(CSc1nnc(Nc2ccccc2F)s1)NCC1CCCO1 (configuration not stated) | / | 4 | -2.1 | / | 2 | 6 | -10 | 3.3 | 11 | -1
O=C(c1cccs1)N1CCCC(c2nc3c(nnn3Cc3c(Cl)cccc3Cl)c(=O)[nH]2)C1 (configuration not stated) | 27 | 3 | 2.2 | 7 | -21 | -27 | -6.1 | 0.0 | 11 | -6
c1ccc(CCN=C2CCCc3c2[nH]c2ccccc32)cc1 | -17 | 3 | -0.5 | 29 | 18 | 13 | 2.3 | -0.7 | 2 | 9
CC1(NC(=O)Cc2c(F)cccc2Cl)CCS(=O)(=O)C1 (configuration not stated) | / | -6 | 1.2 | / | 1 | 4 | 0.8 | -0.4 | -13 | -4
COc1ccc(OC)c(NS(=O)(=O)c2cccc3cccnc23)c1 | -6 | 9 | 1.3 | 0 | 5 | 10 | 1.9 | -2.9 | -3 | -39
CCCCC(=O)Nc1cccn2ncnc12 | -3 | 5 | -0.5 | 13 | 9 | 17 | 6.1 | 2.5 | -6 | -3
Cc1cnc(C(=O)OCc2c(C)cc(C(C)(C)C)cc2C)cn1 | 3 | 2 | -0.3 | 10 | -28 | -27 | -3.5 | -1.5 | -2 | -1
c1csc(-c2nnc(N3CCCCCC3)c3ccccc23)c1 | 30 | -23 | 0.0 | / | -8 | -15 | -3.5 | 2.2 | 5 | -1
COc1cc2ccccc2cc1C(=O)Nc1ccc2oc(=O)ccc2c1 | -14 | 33 | -0.2 | -2 | 11 | 12 | -0.8 | -2.5 | -3 | 69
O=C(Cn1nnc(-c2ccccc2NC(=O)c2cccs2)n1)Nc1ccccc1 | 17 | -1 | -0.1 | -8 | / | / | / | -0.6 | 9 | -6
O=C1NC(C(=O)O)=CC(c2cccc(Cl)c2Cl)N1 (configuration not stated) | / | -6 | 0.4 | / | 7 | 9 | -3.2 | 3.5 | -4 | 5
COc1cc(NC(=O)C2C3CCC(O3)C2C(=O)O)cc(OC)c1 (configuration not stated) | 9 | 0 | 0.3 | 5 | 5 | 5 | -1.1 | -1.2 | -10 | -8
Cc1ccc(Nc2nc(=O)c3cccnc3s2)c(Br)c1 | -3 | 4 | -0.9 | -2 | -22* | -16* | -1.3* | -8.8 | -6 | 2
O=C(c1cnn2c(C(F)F)cc(-c3ccccc3)nc12)N1CCCCC1c1cccnc1 (configuration not stated) | 51 | -7 | -0.9 | 7 | 0 | -1 | 13 | 0.5 | -4 | -3
Cc1ccc(OCCC(=O)OCC(=O)NCc2ccccc2)cc1 | -7 | -1 | -1.2 | / | 9 | -2 | 2.4 | 2.4 | -5 | -4
COc1ccc(OC)c(S(=O)(=O)N2CCN(C)CC2c2ccccc2)c1 (configuration not stated) | / | -4 | 0.9 | / | 3 | 2 | 3.8 | 6.8 | -4 | -4
CCN(C(=O)COC(=O)CCn1c(C)csc1=O)c1c(N)n(Cc2ccccc2)c(=O)[nH]c1=O | / | 0 | -0.1 | / | 11 | 12 | -2.1 | -3.4 | 0 | -1
CCOc1cc(C2C(C(=O)OC)=CN(Cc3ccc(Cl)cc3)C=C2C(=O)OC)ccc1O | 8 | 4 | 1.1 | 4 | -3 | -8 | 10 | -0.1 | -6 | /
COC(=O)[C@@H]1C[C@@H]2CC[C@@H](O)C[C@@H]2N1Cc1ccc(N2CCN(C)CC2)cc1 | -11 | -14 | 0.0 | -8 | 5 | 7 | -3.0 | -1.5 | -1 | /

7 of these compounds in another layout.
Molecule	T cruzi repl	B2AR ag	A1 inh	Calb FLC	Ecoli rRNA inh	Ecoli rRNA inh OD600	Ecoli rRNA inh RFP	LANA-H2A inh	Beta apoptosis	ALR inh
O=C(NNc1ccc(Cl)cc1)c1cccs1	/	-2	-0.1	82*	5	11	-2.1	-3.0	-8	7
CCN(C(=O)COC(=O)CCn1c(C)csc1=O)c1c(N)n(Cc2ccccc2)c(=O)[nH]c1=O	/	0	-0.1	/	11	12	-2.1	-3.4	0	-1
COc1ccc(OC)c(S(=O)(=O)N2CCN(C)CC2c2ccccc2)c1 (configuration not stated)	/	-4	0.9	/	3	2	3.8	6.8	-4	-4
COc1cc2ccccc2cc1C(=O)Nc1ccc2oc(=O)ccc2c1	-14	33	-0.2	-2	11	12	-0.8	-2.5	-3	69
Cc1nc(-c2ccccc2)nc(-c2ccccc2)n1	-15	4	1.3	-5	11	5	9.1	0.7	1	0
Cc1ccc(Nc2nc(=O)c3cccnc3s2)c(Br)c1	-3	4	-0.9	-2	-22*	-16*	-1.3*	-8.8	-6	2
O=C(c1cccs1)N1CCCC(c2nc3c(nnn3Cc3c(Cl)cccc3Cl)c(=O)[nH]2)C1 (configuration not stated)	27	3	2.2	7	-21	-27	-6.1	0.0	11	-6

Following part
SMILES | T cruzi repl | B2AR ag | A1 inh | Calb FLC | Ecoli rRNA inh | Ecoli rRNA inh OD600 | Ecoli rRNA inh RFP | LANA-H2A inh | Beta apoptosis | ALR inh
Cc1ccc(C(=O)OCC(=O)Nc2ccc3c(c2)OCO3)cc1S(=O)(=O)N1CCOCC1 | -4 | -10 | 0.1 | -8 | / | / | / | 1.6 | 3 | -4
CCn1c(SCC(=O)Nc2ccccc2N2CCCCC2)nc2c1c(=O)n(C)c(=O)n2C | 16 | 2 | 1.9 | 2 | / | / | / | 2.4 | 7 | -8
Cc1ccc(C(=O)NCCCNC(=O)c2ccccn2)cc1 | 4 | -3 | -0.3 | 3 | 8 | 5 | 3.5 | 1.0 | / | -7
COC(=O)c1c(C)[nH]c(O)c1C=Nc1ccc(C(C)C)cc1 | 58* | -2 | 0.5 | 0 | / | / | / | -4.8 | 5 | 7
CCn1c(SCC(=O)N2CCCC2)nc2c(c1=O)SCC2 | -25 | 0 | 0.8 | -7 | 17 | 6 | 2.8 | 8.1 | -9 | -3
CC(=O)NS(=O)(=O)c1ccc2c(c1)C(=O)c1cc(S(=O)(=O)NC(C)=O)ccc1-2 | -11 | 2 | 0.6 | 10 | 21 | 19 | 0.5 | 0.9 | / | -8
COc1ccccc1Cn1c(=O)oc2ccc(C)cc21 | 8 | -1 | 1.8 | -2 | -44 | -64 | -16 | 1.9 | -5 | 6
CN(C)S(=O)(=O)c1cccc(NC(=O)COC(=O)c2cccc(S(=O)(=O)N3CCc4ccccc4C3)c2)c1 | -4 | -3 | -1.4 | -4 | 2 | 3 | -0.7 | -6.5 | -3 | -3
COC(=O)C1=C(C)N(c2ccc(C(=O)OC)cc2)C(=O)C1 | -12 | 8 | 0.4 | -2 | / | / | / | -0.8 | -6 | 33
O=C(NNC1CC(=O)N(c2ccc3c(c2)OCCO3)C1=O)c1ccc(Cl)cc1 (configuration not stated) | -6 | 3 | -0.4 | -9 | 17 | 12 | 13 | 3.4 | 2 | -6
CN(C)CCOc1cccc(Cl)c1 | 23 | -10 | -0.1 | 10 | / | / | / | 2.8 | 5 | -42
COc1ccc(NC(=O)c2cccnc2SC)cc1S(=O)(=O)N1CCCCC1 | 1 | 3 | 0.3 | -14 | -25* | -12* | 2.5* | -3.8 | -1 | -6
O=C(O)/C(=C\c1cccc(F)c1)c1ccc(S(=O)(=O)N2CCCC2)s1 | / | 2 | -0.6 | / | -10 | -19 | -1.7 | -0.8 | -3 | 4
C[C@H](CO)N1C[C@H](C)[C@@H](CN(C)C(=O)NC2CCCCC2)Oc2c(NC(=O)C3CCCCC3)cccc2C1=O | / | -3 | 2.0 | / | 5&0 | 9&12 | 1.5&0.5 | -1.0 | -3 | /
CCC1(C)Cc2ccccc2-c2nc(NN)[nH]c(=O)c21 (configuration not stated) | 15 | 11 | -0.2 | 1 | -10 | -18 | -1.8 | 6.8 | -8 | /
CC1(C)CC(=O)N(Cc2ccccc2)C(=O)C1 | -18 | -1 | -0.1 | -16 | -2 | 3 | -0.3 | 1.2 | -1 | 0
O=C(Cn1[nH]c(=O)c2ccccc2c1=O)Nc1ccc(-c2nnc3n2CCCCC3)cc1 | -10 | -17 | 0.7 | -3 | / | / | / | 8.1 | 0 | /
CCN(C[C@H]1N[C@@](CC)(C(=O)OC)[C@H]2C(=O)N(C)C(=O)[C@@H]12)C(=O)Nc1ccc(F)cc1 | / | -1 | 0.0 | / | -3 | 7 | 0.0 | i | -5 | 1
O=C1CN(C(=O)COC(=O)c2ccccc2Br)c2ccccc2N1 | / | -4 | 1.4 | / | -2 | -21 | 0.6 | 0.3 | -1 | -10
COc1ccc(COC(=O)Nc2cn(C)nc2C(F)(F)F)cc1 | -21 | 1 | 0.1 | -4 | 8 | 10 | 11 | 7.1 | 1 | 0
CS(=O)(=O)N1CCC(C(=O)N2CCc3ccccc3C2)CC1 | -4 | -5 | 0.0 | -16 | / | / | / | -0.3 | 2 | -8
CCOC(=O)c1ccc(NC(=O)c2ccccc2N(C)S(=O)(=O)c2ccccc2)cc1 | 35 | -5 | 2.0 | -5 | -14 | -17 | 18 | -2.7 | -6 | -5
O=C(COC(=O)Cc1ccsc1)Nc1ccc(Cl)cc1F | / | 11 | 2.0 | / | 2 | 5 | 0.8 | -2.4 | -1 | -3
COc1ccc(-n2c(COc3cccc(C)c3)nnc2SCC(=O)NCc2ccco2)cc1 | 25 | -5 | -0.1 | -7 | / | / | / | -2.8 | -4 | /
O=C(NCCC1=CCCCC1)C1CCC(CNS(=O)(=O)c2ccccc2)CC1 (configuration not stated) | -19 | -5 | 0.5 | -1 | / | / | / | / | 3 | /
C=C1C[C@H](O)[C@@H]2[C@H](OC(=O)[C@H]2C)[C@H]2[C@H](C)[C@@H](O)C[C@@H]12 | / | 0 | -0.6 | / | 4 | 5 | 4.8 | 1.9 | -3 | 1
COc1ccccc1NC(=O)CCC(=O)O | -2 | 5 | 1.7 | -7 | / | / | / | 2.4 | 3 | -17
CC(Oc1cccc(NC(=O)c2cccs2)c1)C(=O)c1ccccc1 (configuration not stated) | 0 | -2 | -1.9 | 34 | -26 | -36 | -7.4 | -2.5 | -1 | -3

These rows are one share of the data; count on the stated rates, not on these rows.
